Compound activity (PubChem BioAssay)
AID504770: growth inhibitors of E. coli YBA685 in a screen for V. cholerae RctB (chromosome II replication) inhibitors; actives 0.27% (n = 130,000); AID 504770; z-score (concentration not given with the values); E. coli YBA685 rctB-dependent plasmid, OD600 growth, 3 h; stronger effect = lower value;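 active = z-score under -2 on both plates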;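 note: wells of about 30 µL received 100 nL stock; score is relative to mean and SD of the test wells; the first replicate is given; strong numbers were not always called active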
Ba CapD inh: inhibitors of Bacillus anthracis CapD enzyme; purified CapD enzyme, fluorescence intensity read-out; stronger effect = lower value; some hits fall short of the stated cut; z-score (test concentration not listed); actives 0.23% (n = 140,000);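 active = z-score under -4 in either of two replicates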;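 note: stock transfer was 100 nL into about 40 µL; score is relative to mean and spread of the plate; one replicate is shown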
Active calls of the source: *; . = not tested or not shown.

molecule	AID504770	Ba CapD inh
CCOCCOC(=O)C1=C(C)NC2=C(C(=O)CC(c3ccc(OC)cc3)C2)C1c1cc(Cl)c(O)c(OC)c1 (stereo not given)	.	12
CC1=NN(c2ccc(C(=O)NNC(=O)C3(c4ccc(Cl)cc4)CCC3)cc2)C(=O)C1	.	-2
O=C1OC(c2ccccc2F)=N/C1=C\c1cccc(C(F)(F)F)c1	-0.6	-1.1
CCOC(=O)c1ccc2nc(C(F)(F)F)cc(N3CCCCC3)c2c1	.	0.61
COc1cccc(-n2c(Cc3cc(=O)[nH]c(=O)[nH]3)nnc2SCC(N)=O)c1	-1.4	.
O=S(=O)(Nc1ccc2oc3c(c2c1)CCCC3)c1cccc2cccnc12	-0.55	0.03
NC1=NC2(CCCCC2)N(c2ccc(F)cc2)C(N)=N1	-0.7	.
CN(CCc1ccccn1)Cc1ccccc1	-0.55	.
CN(CC(O)Cn1c(-c2ccccc2)c(-c2ccccc2)c2ccc3ccccc3c21)C1CCCCC1 (stereo not given)	.	1.1
Cc1sc(Nc2ccccc2)nc1-c1ccc(-c2ccccc2F)cc1	.	12
CC(C)CC(=O)NN	-0.55	.
Cc1ccc(C(=O)N2CCOCC2)cc1	0.05	0.52
N#CC(C#N)=Cc1c(-c2ccccc2)nc2n1CCS2	-0.3	-1.3
O=C(OCCN1CCCCC1)c1ccc(Br)cc1	0.95	-0.16
O=C(N/N=C1\CCc2ccccc21)c1ccc(F)cc1	-0.25	.
FC(F)(F)c1cccc(CSC(=S)NC2CC2)c1	-0.35	-0.32
Cc1ccc(S(=O)(=O)N2CCN(C(=O)[C@@H]3CCCN3C(=O)OC(C)(C)C)CC2)cc1	0.85	.
CCN1CCc2nc3ccccc3c(C(=O)Nc3ccc(NC(C)=O)cc3)c2C1	2.2	.
O=S(=O)(NCc1ccc2c(c1)OCO2)c1ccc(Cl)s1	.	-0.62
CSc1nnc(CCCO)n1-c1ccc(Cl)cc1Cl	0.2	0.49
Cc1cc(=O)n2cn[nH]c2n1	.	0.16
S=c1[nH]c2ccccc2n1Cc1ccccc1	0.15	-0.52
NC(=S)C1(c2ccc(Cl)cc2Cl)CC1	.	0.18
COc1cc(NC(=O)Cn2nc(C(F)(F)F)c(Br)c2C)c(OC)cc1Cl	.	0.58
COc1ccc(CN2CCN(C(=O)C3CCC(CNS(=O)(=O)c4ccc(C)cc4)CC3)CC2)c(OC)c1OC (stereo not given)	-0.2	0.61
NC1=NNC(=O)/C1=C\c1cc([N+](=O)[O-])ccc1N1CCOCC1	.	0.18
Cc1cc(C(=O)COC(=O)C2=NNC(=O)CC2)c(C)n1-c1ccccc1	0.2	.
CCC(CC)c1nnc(NC(=O)c2ccc(CSc3ncn[nH]3)cc2)s1	0.2	.
O=C(N=Nc1c2ccccc2c2nc3no[nH]c3nc12)c1ccccc1O	-0.05	-0.48
O=C(Nc1ccc(F)cc1F)c1nccnc1Oc1cccc(C(F)(F)F)c1	0.2	-0.23
CCOC(=O)COc1cc(N2C(=O)CSCC2=O)c(Cl)cc1Cl	.	-0.075
CC(=O)N1CCC(N(C(=O)CSCCNC(=O)Nc2ccc(F)cc2F)C2CC2)CC1	.	-0.05
N=C1SCC(=O)N1c1ccc(Cl)cc1	0.8	.
Cc1ccc(-c2cc(C#N)c(=O)n(Cc3cccc(C(F)(F)F)c3)c2)cc1	.	4.1
COc1ccc(Cc2c(O)[nH]c(=S)[nH]c2=O)cc1	0.1	.
C=Cn1ccnc1P(O)(=S)c1nc(C)c(CCOC(C)=O)s1 (stereo not given)	-1.6	.
CCc1ccc(-c2nc(=S)n(CN3CCN(S(=O)(=O)c4cccs4)CC3)[nH]2)cc1	0.1	.
CN(C)C=Nc1ccc(OC(F)F)c(Cl)c1	-0.3	.
Cc1ccsc1CCNC(=O)CCc1nnc2n(CCc3ccccc3)c(=O)c3ccccc3n12	-0.5	0.54
COC(CNC(=O)c1ccc(/C=C2\Sc3ccccc3N(Cc3ccc(F)cc3)C2=O)cc1)OC	-0.1	-8.5*
N=C1/C(=C/c2ccc(OCc3ccc4c(c3)OCO4)cc2)C(=O)N=C2SC=CN12	-0.3	-0.23
Cc1c(S(=O)(=O)Nc2ccc(N3CCCCC3)cc2)sc2ccc(Cl)cc12	0.2	-0.24
COC(=O)c1cc2c(s1)CN(Cc1ccc(Cl)cc1)C2	0.65	0.16
CCN(CC)S(=O)(=O)c1ccc(N=c2ccccn2C)cc1	-0.4	.
CC(C)(C)c1ccc(N2C(=O)c3cc(Cl)c(Cl)cc3C2=O)cc1	.	0.48

Brought forward from above: two compounds, then new ones.
molecule	AID504770	Ba CapD inh
CCN(CC)S(=O)(=O)c1ccc(N=c2ccccn2C)cc1	-0.4	.
CC(C)(C)c1ccc(N2C(=O)c3cc(Cl)c(Cl)cc3C2=O)cc1	.	0.48
C/C(=N\N)c1ccc(Cl)c(Cl)c1Cl	-0.45	.
Cc1ccc(-c2nc(SCc3ccccc3)nc(NC(C)C)c2C#N)cc1	.	0.37
NC(=O)C1CCN(C(=O)/C=C/C(=O)O)CC1	-0.75	0.53
O=c1c2c(nc3n1CCCS3)-c1ccccc1CC21CCCC1	-0.05	.
O=C(O)c1ccc2c(c1)OCCOCCOCCO2	-0.3	0.33
CCN1CCC2(CC1)NC(CO)(CO)CO2	2	0.06
BrC12CC3CC(Br)(C1)CC(Br)(C3)C2	.	0.39
O=C(Nc1ccc(Sc2ccc(F)cc2)cc1)c1cccc(C(F)(F)F)c1	.	0.11
CCN1CCN(S(=O)(=O)c2c(C)c(C)cc(C)c2C)CC1	1.1	-0.67
Cc1nc2ccccc2nc1CSCc1ccco1	-0.4	.
CC(C)n1nc(C(=O)O)c2ccccc2c1=O	-0.6	.
CCC(=O)Nc1ccc(N2CCOCC2)cc1	2.5	-0.55
O=C(CSc1ccc(F)cc1)NCCSc1ccccc1	0.05	-0.56
CC(C)(C)C(=O)c1cn(CC(=O)O)c2ccccc12	0.25	-1.6
CCOC(=O)C1=CN(Cc2ccc(OC)c(OC)c2)C=C(C(=O)OCC)C1c1ccc(C)c([N+](=O)[O-])c1	.	-1.2

Some of the entries so far, with values under each structure:
Below each SMILES – AID504770	Ba CapD inh
C=Cn1ccnc1P(O)(=S)c1nc(C)c(CCOC(C)=O)s1 (stereo not given)
 : -1.6	.
BrC12CC3CC(Br)(C1)CC(Br)(C3)C2
 : .	0.39
CCOC(=O)COc1cc(N2C(=O)CSCC2=O)c(Cl)cc1Cl
 : .	-0.075
N=C1/C(=C/c2ccc(OCc3ccc4c(c3)OCO4)cc2)C(=O)N=C2SC=CN12
 : -0.3	-0.23

(more compounds)
molecule	AID504770	Ba CapD inh
C[C@H](NC(=O)C12CC3CC(CC(C3)C1)C2)C(=O)O	-0.6	.
O=C(CNC(=O)Cc1ccccc1)NCc1ccco1	-0.5	-0.24
CCCc1ccc(S(=O)(=O)N2CCCN(Cc3ccc(Cl)c(Cl)c3)CC2)cc1	.	-0.49
CCc1ccc(NC(=O)c2ccc(F)c(S(=O)(=O)N3CCN(c4ccc([N+](=O)[O-])cc4)CC3)c2)cc1	.	-0.65
Cc1ccc(SCc2cc(=O)[nH]c(SCC(=O)n3c4ccccc4c4ccccc43)n2)cc1	0.35	0.24
COCCOc1cc(NC(=O)c2cccc(OC)c2)c(Cl)cc1Cl	.	-0.11
C[C@@H]1CC2C3CCC4=CC(=O)C=C[C@]4(C)[C@@]3(F)[C@@H](O)C[C@]2(C)[C@@]1(O)C(=O)CO (stereo not given in full)	0.4	-0.12
CCCNC(=O)CN1C(=O)N(c2ccc(CC)cc2)S(=O)(=O)c2ccccc21	-0.45	.
O=C(Cn1c(-c2cccs2)cc2ccccc21)N1CCCCC1	1	1.5
CCCNC(=O)c1cnn(-c2ccccc2)c1-n1cccc1	0.2	-0.52
CN(CCOC(=O)C1c2ccccc2Oc2ccccc21)Cc1ccccc1	-1.2	-0.57
CN(C)CCNC(=O)c1cc2c(s1)-c1ccccc1OC2	0.45	102
FC(F)(F)c1ccc(N2CCN(Cn3nnc4ccccc43)CC2)nc1	0.55	0.63
COc1cc(-c2ccccc2)nc(N)n1	-1.2	.
O=C(Cn1c2ccccc2c(=O)c2cc(Cl)ccc21)Nc1cc(Oc2ccc(F)cc2F)cc([N+](=O)[O-])c1	.	1.2
CC1CN(C(=O)CCn2c(=O)oc3ccccc32)CC(C)O1 (stereo not given)	1.4	1.4
CNC(=O)NC(=O)Cn1cnc2sc(-c3ccccc3)cc2c1=O	-0.05	6.5
COc1cc(C2C(C#N)=C(N)Oc3n[nH]c(-c4cc(OC)c(OC)c(OC)c4)c32)cc(OC)c1O (stereo not given)	.	-0.28
O=C(CCSc1nnc(-c2ccco2)o1)N1CCOCC1	-0.95	.
O=S(=O)(Nc1ccc(S(=O)(=O)N(C2CC2)C2CCN(Cc3ccccc3)CC2)cc1)c1cccc(C(F)(F)F)c1	.	-0.24
S=C(c1cccnc1)N1CCOCC1	1.1	-0.4
O=C1S/C(=C/c2ccccc2)C(=O)N1CC(O)Cn1c2ccccc2c2ccccc21 (stereo not given)	-0.8	1.5
Cc1nonc1OCCN1CCN(c2cnn(-c3ccccc3)c(=O)c2Cl)CC1	0.4	.
C=CC(=O)N1CC2CC(C1)c1cccc(=O)n1C2 (stereo not given)	-0.1	0.71
CN(C)NC(=S)Nc1cccc(C(F)(F)F)c1	0.85	0.04
COc1ccc2c(NCC3=CC=CC3)cc(C)nc2c1	-0.25	2.9
CC(C)OC(=O)n1c(=S)oc2ccccc21	-0.15	0.08
Cc1cc(-c2cn3cc(Br)ccc3n2)c(C)n1Cc1ccco1	-0.55	.
CSCC[C@@H](C(=O)O)N1Cc2ccccc2C1=O	-0.55	0.29
CCOc1ccc(NC(=O)c2ccc(Br)o2)cc1	-1.1	-0.38
O=S1(=O)CCC(NC(=S)SCCOc2ccccc2)C1 (stereo not given)	-3*	0.51
C(#Cc1cncc(-c2nc(-c3ccccc3)no2)c1)c1ccccc1	-0.9	-0.34
CC(=O)NC1=NC(=O)/C(=C/c2cc3c(cc2Br)OCO3)S1	.	0.36
CN(C(=O)COC(=O)C1CC2C=CC1C2)C1CCCCC1 (stereo not given)	1	0.47
FC(F)(F)c1cc(NC(=S)NC2CCCCC2)cc(C(F)(F)F)c1	-0.45	0.16
O=[N+]([O-])c1ccc(N2CCN(S(=O)(=O)c3ccc(F)c(Cl)c3)CC2)nc1	.	-0.65
O=C(N/N=C/c1cc(Cl)cc(Cl)c1O)N/N=C/c1cc(Cl)cc(Cl)c1O	.	-1.6
CCOC(=O)CNc1nc2ccc(C)cc2n2cnnc12	-2.6	0.47
CSc1nnc2c(n1)OC=Nc1ccc(Cl)cc1-2	0.1	0.46
COc1ccc(-c2nc(CNS(=O)(=O)c3ccc(NC(C)=O)cc3)cs2)cc1	-1.2	-2.1
CC(C)(C)c1cc(C(=O)NNC(=O)OCC2(c3ccc(Cl)cc3)CC2)n[nH]1	.	0.17
COc1ccc(S(=O)(=O)NCc2cccc(C)c2C)cc1OC	.	-0.09
C=C(C)Cn1c(N)cc(=O)nc1SCC(=O)Nc1cccc(C(F)(F)F)c1	0.7	0.54
CC(C)(C)C(=O)OCc1nc(-c2ccc(Cl)cc2)cs1	0.2	0.62
O=C(CCn1c(=O)oc2ccccc21)NC1=NCCS1	-0.05	-0.78
CCCCCCC#CCCOC(=O)Nc1cc(C(C)(C)C)ccc1O	.	-0.17
Cc1ccccc1OCC(O)Cn1ccnc1C (stereo not given)	-0.65	-0.12
COc1ccc(-c2csc(NC(C)=O)c2C(=O)O)cc1	0.3	.
O=C(c1ccccc1)c1nc2ccccc2[nH]c1=O	0.45	-0.23
COc1cc2ccc(=O)oc2c(OC2OC(CO)C(O)C(O)C2O)c1O (stereo not given)	-0.15	9.9
CCN(CC)c1nc2c(c(=O)n(C)c(=O)n2C)n1CC(=O)c1ccc(Br)cc1	.	0.075
c1cncc(-c2nc(-c3cccs3)cs2)c1	-3.2	6.5
O=C(Nc1cnn(Cc2ccc(F)cc2)c1)c1cc(-c2ccc3c(c2)OCO3)on1	1.9	-0.42
NC(=S)CC(=S)N1CCOCC1	-0.6	.
COc1ccc(C/C(=N/N=C(N)N)c2ccc(OC)cc2)cc1	2.4	.
COC(=O)C(C)Oc1ccc2c(=O)c(-c3ccc(Cl)cc3)c(C(F)(F)F)oc2c1 (stereo not given)	.	-0.21
Cc1c(NC(=O)COc2ccc(C3CCCCC3)cc2)cccc1-c1nc2ncccc2o1	.	-0.14
O=C(Nc1cccc(F)c1)c1ccc2ncsc2c1	-0.3	.
CCOC(=O)C1=C(C)N=c2s/c(=C/c3ccc4c(c3)OCO4)c(=O)n2C1c1ccc(OC(C)=O)cc1 (stereo not given)	.	-0.87
CCN1CCCC1CNc1ccc(S(=O)(=O)N2CCCC2)cn1 (stereo not given)	0.2	.

Carrying on:
molecule	AID504770	Ba CapD inh
CCOC(=O)C1=C(O)/C(=C/c2ccc(O)c(OCC)c2)SC1=Nc1ccc([N+](=O)[O-])cc1	.	0.17
O=C(CCc1ccccc1)NCCc1nc2ccccc2[nH]1	-1.1	0.22
CC1=CC(C)C(/C=N/O)C(C)C1 (stereo not given)	-0.1	.
O=C(CN1C(=O)c2ccccc2S1(=O)=O)NC1CC1	0.25	0.24
N#CC(C#N)=Cc1cccn1-c1ccc(S(N)(=O)=O)cc1	0.35	.
COc1ccc(-c2[nH]nc(-c3ccccc3)c2-c2ncc[nH]2)cc1	-0.5	.
